TRPML1 agonist – human mucolipin-1 channel agonism; Q9GZU1; TRPML1-expressing cells, Ca2+ dye fluorescence, FDSS; host cell line not named in the record; reference of the full effect not given here; AID 624414; 410,000 tested, 0.12% active; activation, % (concentration not given with the values); in the data active = activation above about 50%; inconclusive = about 30% to 50%; inactive = below about 30%; also: 0% is about no effect; the text of the record puts the active cut at 80%
Target sequence (Q9GZU1 whole entry, looked up): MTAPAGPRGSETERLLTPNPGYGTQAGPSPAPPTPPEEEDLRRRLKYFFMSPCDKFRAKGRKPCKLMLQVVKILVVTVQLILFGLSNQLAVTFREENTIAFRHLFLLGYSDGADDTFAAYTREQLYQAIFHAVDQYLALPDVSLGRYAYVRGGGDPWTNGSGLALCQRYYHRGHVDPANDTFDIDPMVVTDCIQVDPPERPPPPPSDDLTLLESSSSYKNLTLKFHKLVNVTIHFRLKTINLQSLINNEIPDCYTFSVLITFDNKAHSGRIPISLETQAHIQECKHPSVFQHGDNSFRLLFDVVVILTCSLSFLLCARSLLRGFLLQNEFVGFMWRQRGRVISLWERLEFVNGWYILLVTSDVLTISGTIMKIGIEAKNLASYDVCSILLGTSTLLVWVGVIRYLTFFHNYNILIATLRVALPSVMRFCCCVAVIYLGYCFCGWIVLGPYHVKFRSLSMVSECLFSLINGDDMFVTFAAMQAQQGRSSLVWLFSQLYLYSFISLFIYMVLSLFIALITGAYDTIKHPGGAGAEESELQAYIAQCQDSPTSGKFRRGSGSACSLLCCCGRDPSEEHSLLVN
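TRPML1-DL cells, Tet-induced overnight (~16 h, 37 degrees C), loaded 45-90 min at room temperature with Ca8 no-wash calcium dye plus quencher. FDSS fluorescence: 10 s baseline, compound pin-transfer, 110 s agonist read, then EC80 54-4 (4uM final) and 110 s antagonist read.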
PINK1 expr mod – modulators of PINK1 expression; PINK1 immunofluorescence, high-content cytometry, 24 h; Potency, µM (titrated, usually from 76.6 µM), without a hit: at the highest dose activation (PINK1 increase), hits mostly activators; 410,000 tested, 0.2% active; active = well fitted activation curve with a large enough effect; inconclusive = small, poorly fitted or top-dose-only effect; inactive = flat fitted curve, though single readings scatter; cell line not stated here;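 also: potency is read from the fitted curve at half-maximal effect; % of control where 0% means no effect; nearly all actives have a fitted effect of over 65% in size; a mitochondrial uncoupler was the plate control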
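Cells are seeded, rested 12 hours, then given compound at five concentrations or DMSO for 24 hours. After fixation, blocking and antibody staining, PINK1 amount and mitochondrial localization are scored; CCCP serves as control.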
* marks the source's active call; other numbers are inactive results; ? = inconclusive. This is a subset, so the mix of outcomes need not match the whole.

Below each compound – TRPML1 agonist, PINK1 expr mod
- O=C(O)c1ccc(B(O)O)cc1
→ -0.4, 1.0%
- CCc1ccc(OCC(=O)NCC(c2ccc(Cl)cc2)N2CCOCC2)cc1 (stereo not drawn)
→ 0.3, -0.8%
- CN(Cc1ccccc1)c1ccc(/C=C/c2nc3ccccc3s2)cc1
→ 13, ?
- Cc1ccc2sc(N(Cc3cccnc3)C(=O)CCS(=O)(=O)c3ccccc3)nc2c1C
→ -0.4, 0.1%
- COc1ccc(-c2cn3c(n2)sc2cc(C(=O)Nc4cc(OC)cc(OC)c4)ccc23)cc1
→ 1.7, 6.2%
- COc1ccc(NC(=O)C2CCCN2S(=O)(=O)c2ccc3c(c2)CCCC(=O)N3)cc1Cl (stereo not drawn)
→ -1.3, 0.0%
- Clc1cccc(Nc2nnc(-c3ccccc3)c3ccccc23)c1
→ -0.6, 1.0%
- COc1ccc(OCc2ccc(-c3nc(C#N)c(N4CCCCC4)o3)o2)cc1
→ 1.1, -1.2%
- Cc1ccc(C(=O)Nc2cccc3cccnc23)cc1Cl
→ -0.8, 1.4%
- Cc1ccc2nc3c(cc(C(=O)NC4CCCC4)c(=N)n3C(C)C)c(=O)n2c1
→ 0.4, 0.2%
- CCOc1ccc2nc(Cl)c(C3CC(c4ccc(OC)cc4)=NN3S(C)(=O)=O)cc2c1 (stereo not drawn)
→ 1.4, 1.7%
- CCOc1ccc(-c2nonc2NC(=O)c2ccccc2C)cc1
→ 1.5, 16%
- Cc1ccc(CN2C(=O)c3oc4ccc(C)cc4c(=O)c3C2c2ccc(O)cc2)cc1 (stereo not drawn)
→ 0.3, -0.5%
- Cc1ccc(Cn2c(C)c(CNCc3ccccc3F)c(C(=O)O)c2C)cc1
→ 0.1, -1.4%
- CC(=O)N/C(=C/c1ccccc1)c1ccncc1
→ -0.7, -0.7%
- Cc1ccc2nc(SC(Cc3cc(Cl)ccc3Cl)C(=O)O)[nH]c2c1 (stereo not drawn)
→ -1.0, 0.9%
- Cc1ccc(NC(=O)Nc2nnc(SCC(=O)N(C(C)C)C(C)C)s2)cc1
→ -0.2, 0.9%
- COc1ccc(-n2c(=O)c3c(c4cc(OC)ccc4n3C)n(Cc3cccc(OC)c3)c2=O)cc1
→ 0.0, 3.2%
- COc1ccc(OC)c2c(/C=C/c3ccc(N(C)C)cc3)ccnc12
→ 12, 1.8%
- CCC(=O)N1CCc2cc(Br)cc(S(=O)(=O)CCC(=O)NCCc3cccc(C)c3)c21
→ 3.2, -0.2%
- COc1ccccc1C(=O)Nc1ccccc1OCc1cc(=O)n2c(C)csc2n1
→ -0.5, -0.1%
- O=C(CSc1nccn1Cc1ccc(F)cc1)NCc1ccco1
→ 0.4, 3.3%
- O=C(C1CCC1)N1CCc2cc(S(=O)(=O)NCCc3ccccc3)ccc21
→ 3.7, -1.1%
- CC(=O)N1CCCc2cc(S(=O)(=O)N3CCC(C(=O)NCc4ccc(N(C)C)cc4)CC3)ccc21
→ -0.1, -1.6%
- COCCNC(=O)Cn1ncc2c(C)n(Cc3ccc(C)cc3)c(C)c2c1=O
→ 1.0, -0.6%
- COc1ccc(C)cc1NC(=O)c1cc2c(s1)-c1ccccc1SC2
→ -0.3, 1.1%
- CCCCSCCCNC(=O)c1cn(C)c2ccc(S(=O)(=O)N3CCCCCC3)cc2c1=O
→ -1.0, 0.5%
- O=C(CSc1nc2ccccc2nc1Cc1ccc(Cl)cc1)N1CCc2ccccc21
→ -0.1, 1.5%
- Cc1cccc(C(=O)NCC(c2ccc3c(c2)OCO3)N2CCN(c3ccccc3F)CC2)c1 (stereo not drawn)
→ 0.4, -0.1%
- NNC(=O)c1ccc(C(=O)N(c2ccccc2)c2ccccc2)cc1
→ -1.0, 3.5%
- CC(NC(=O)CCCN1C(=O)CCn2nc(-c3cn(C)c4ccccc34)cc21)c1ccccc1 (stereo not drawn)
→ 2.2, 7.4%
- CC1CCc2c(sc3nc(-c4cc5cc(Br)ccc5oc4=O)[nH]c(=O)c23)C1 (stereo not drawn)
→ 0.5, 2.2%
- CCOc1ccc(OCC)c(NS(=O)(=O)c2ccc3c(c2)CCCN3C(C)=O)c1
→ -0.2, -0.7%
- Cc1ccc(NC(=O)C2CCN(c3nnc(C)c4c(C)n(-c5ccccc5)nc34)CC2)cc1Cl
→ 1.8, 0.7%
- COc1cccc(N2CCN(C(=O)C3Cc4ccccc4N3C(C)=O)CC2)c1 (stereo not drawn)
→ 0.7, -0.6%
- CCc1cccc(C)c1NC(=O)CCCN1C(=O)C(c2ccccc2)Oc2cccnc21 (stereo not drawn)
→ 0.9, 0.2%
- COc1ccc(-c2csc3ncnc(Nc4cccc(OC)c4)c23)cc1
→ -0.4, -1.1%
- CCOC(=O)c1cc(-c2ccccc2)n(CC(=O)NCc2ccccc2)c1C
→ 0.5, -0.3%
- CCOc1ccccc1Nc1nnc(-c2cc3cc(Cl)ccc3oc2=O)s1
→ -0.1, 1.5%
- O=C(Nc1ccc(-c2nc3ccccc3o2)c(O)c1)c1cc(Cl)ccc1Cl
→ 1.7, 1.8%

In the list so far, these contain an NH in an aromatic ring.
Below each compound – TRPML1 agonist, PINK1 expr mod
- Cc1ccc2nc(SC(Cc3cc(Cl)ccc3Cl)C(=O)O)[nH]c2c1 (stereo not drawn)
→ -1.0, 0.9%
- CC1CCc2c(sc3nc(-c4cc5cc(Br)ccc5oc4=O)[nH]c(=O)c23)C1 (stereo not drawn)
→ 0.5, 2.2%

Nothing new here: 2 of the compounds above.
Below each compound – TRPML1 agonist, PINK1 expr mod
- CCOc1ccccc1Nc1nnc(-c2cc3cc(Cl)ccc3oc2=O)s1
→ -0.1, 1.5%
- O=C(Nc1ccc(-c2nc3ccccc3o2)c(O)c1)c1cc(Cl)ccc1Cl
→ 1.7, 1.8%

The list goes on.
Below each compound – TRPML1 agonist, PINK1 expr mod
- CC(C)c1ccc(/C=C(\C#N)c2nc(-c3ccc(O)cc3)cs2)cc1
→ 1.0, ?
- Cc1ccc(S(=O)Cc2nc(-c3ccc(C(=O)NC(C)c4ccccc4)cc3)oc2C)cc1 (stereo not drawn)
→ 0.7, -0.2%
- COc1cc(CNCCSc2nnnn2C)ccc1OCc1ccc(C)cc1
→ 0.7, -0.4%
- COc1ccc(OC)c(CNC(=O)C2CCCCN2S(=O)(=O)c2ccc(F)cc2)c1 (stereo not drawn)
→ -1.4, 0.6%
- Cc1ccc(NS(=O)(=O)c2ccc3c(c2)N(C)C(=O)CC(=O)N3C)cc1Cl
→ 1.2, 2.7%
- CCOC(=O)c1cc(C)n(CC2CCC(C(=O)Nc3cc(OC)cc(OC)c3)CC2)c1C (stereo not drawn)
→ 0.5, 2.0%
- CC1CCN(S(=O)(=O)c2ccc3c(c2)N(CC(=O)NC(C)c2ccccc2)C(=O)CS3)CC1 (stereo not drawn)
→ 1.8, 0.7%
- Cc1ccc2c(c1)c(=O)c1ccccc1n2CCCC(=O)Nc1ccc(C)c(F)c1
→ 2.0, 0.8%
- Cc1ccc(CCNC(=O)CN(c2ccc(C(C)C)cc2)S(=O)(=O)c2c(C)nn(C)c2C)cc1
→ -0.1, 1.1%
- COc1ccc(Nc2nc(-c3cccc(Cl)c3)c3c(n2)-c2ccccc2OC3)cc1
→ 0.6, 1.4%
- Cc1ccc(C)c(OCC(=O)Nc2sc3c(c2C#N)CCCC3)c1C
→ -0.5, 1.9%
- COc1ccc(CNC(=O)Cc2c(C)c3cc4c(C)coc4c(C)c3oc2=O)cc1
→ -0.7, -0.2%
- Cc1ccc(-c2noc(-c3ccc(N4CCC(C)CC4)c([N+](=O)[O-])c3)n2)cc1
→ -0.4, 0.0%
- Cc1ccccc1NC(=O)c1c(NC(=O)c2ccco2)sc2c1CCC(C(C)(C)C)C2 (stereo not drawn)
→ -0.3, 4.8%
- O=C(NCC(c1cccs1)S(=O)(=O)c1cccs1)c1ccc(F)c(F)c1 (stereo not drawn)
→ 0.1, 0.3%
- CCN(C(=O)c1cn(-c2cccc(OC)c2)c(=O)c2ccccc12)c1ccccc1C
→ 1.0, -0.1%
- COc1ccc(OC)c(NC(=O)c2c(NCc3ccc(C)o3)sc3c2CCCCC3)c1
→ -1.1, 1.3%
- COc1cc2c(cc1OC)C(COc1ccc(F)cc1)N(C(=O)c1ccc(S(=O)(=O)N3CCCC3)cc1)CC2 (stereo not drawn)
→ 2.9, ?
- Cc1csc2nc(COC(=O)CNC(=O)c3ccc(F)cc3)cc(=O)n12
→ 0.8, 2.6%
- COc1ccc(/C=C/c2cnccn2)cc1OC
→ -0.7, -0.2%
- CC(C)c1ccc(N2C(=O)N(Cc3ccccc3Cl)c3ccccc3S2(=O)=O)cc1
→ -0.8, 2.7%
- C=CCn1c(SCCC)nc2ccccc2c1=O
→ -1.0, -0.1%
- COc1ccc(-c2noc(-c3ccc(N4CCC(C)CC4)c([N+](=O)[O-])c3)n2)cc1OC
→ -0.1, 1.7%
- COc1cccc(Nc2sc(C(=O)c3ccc(F)cc3)c(N)c2C(=O)NCc2ccc(C)cc2)c1
→ 0.9, 30%
- Cc1ccn2cc(-c3ccc(C)c(NS(=O)(=O)c4ccc(Cl)cc4)c3)nc2c1
→ 0.6, 0.7%
- Cc1ccc(NC(=O)c2ccc(CN3C(=O)CCn4nc(C)cc43)cc2)c(Cl)c1
→ 2.5, 7.9%
- COc1ccccc1CNc1ccc(-c2nc(C)no2)cc1[N+](=O)[O-]
→ -0.6, 6.7%
- CCOc1ccccc1NC(=O)Cn1cnc2onc(-c3ccc(F)cc3)c2c1=O
→ 1.1, -4.9%
- O=C1N(Cc2ccccc2)c2ccccc2C1(O)c1c[nH]c2ccccc12 (stereo not drawn)
→ -1.4, 2.3%
- CCCN(CCC)S(=O)(=O)c1ccc(N2CCCCS2(=O)=O)cc1
→ -0.6, 2.5%
- CCOC(=O)C1CCN(c2ncnc3c2c(-c2ccccc2)cn3-c2cccc(C)c2)CC1
→ ?, 3.2%
- CC1=C(C(=O)OC2CCCCCC2)C(c2ccc(Cl)cc2)CC(=O)N1 (stereo not drawn)
→ -1.1, 3.5%
- CCc1nnc(NC(=O)c2nc(SCc3ccccc3C)ncc2Cl)s1
→ -0.6, 0.0%
- Cc1ccc(CNC(=O)c2ccc3c(=O)n(-c4ccccc4)c(=O)[nH]c3c2)cc1
→ -0.8, 0.8%
- COc1ccc(NC(=O)c2sc3nc(C(F)(F)F)cc(C)c3c2N)cc1OC
→ 1.0, 40µM*
- COc1cccc(-c2cc(C(F)(F)F)n3nc(C)c(-c4ccccc4)c3n2)c1
→ -0.1, 2.2%
- CCc1ccc(-n2c(=O)c3c(C)c(C(=O)N(C)C)sc3n(CC(=O)Nc3cc(Cl)ccc3C)c2=O)cc1
→ 0.7, -0.9%
- CN1CCc2nc3sc(C(=O)Nc4c(F)cccc4F)c(N)c3cc2C1
→ 0.4, -0.3%
- COc1ccc(S(=O)(=O)c2c(O)c(C)cc(NS(=O)(=O)c3ccc(Cl)cc3)c2C(C)C)cc1
→ -0.3, 27%
- Cc1ccc(S(=O)(=O)c2nc(-c3cccs3)oc2SCC(=O)Nc2cc(C)cc(C)c2)cc1
→ 0.2, 4.2%
- COc1ccc(OC)c(Nc2ncc3c(n2)CCN(Cc2cc(OC)c(OC)c(OC)c2)C3)c1
→ 0.8, 3.8%
- COc1ccc(Br)cc1CNC(=O)c1cnc2sc(N3CCC(C)CC3)nn2c1=O
→ -0.5, 3.0%
- Cc1ccc(-c2nc3ccc(Cl)cn3c2Nc2ccccc2C)s1
→ -0.8, -0.1%
- CCOc1ccc(C(=O)NCCS(=O)(=O)N2CCN(c3cccc(Cl)c3)CC2)cc1
→ 0.7, 2.0%
- CC(=O)c1c(C)oc2c1cc(NS(=O)(=O)c1ccc(C(C)(C)C)cc1)c1ccccc12
→ 28, 2.7%
- COc1ccc(Br)cc1CNC(=O)c1cc2n(n1)CCCN(Cc1ccc(C)cc1)C2=O
→ 3.0, -1.7%
- Cc1ccc(C)c(CN2C(=O)c3ccccc3S(=O)(=O)c3ccc(C(=O)N4CCN(c5ccccc5)CC4)cc32)c1
→ 0.8, 3.8%
- COc1ccc(CCNC(=O)c2oc(=O)c3ccccc3c2-c2ccccc2)cc1OC
→ 3.9, -0.8%
- Clc1ccccc1Cc1cn2cc(-c3ccccc3)nc2s1
→ 2.3, 2.9%
- Cn1c(C(=O)NCc2ccccc2F)cc2cc(S(=O)(=O)N3CCCCC3)ccc21
→ 2.1, 1.0%
- Cc1ccc(Cc2nc3ccccc3nc2SCC(=O)N2CCc3ccccc32)cc1
→ -0.2, 0.6%
- Cc1ccccc1CSc1nc2cc(C(=O)NC3CCCC3)ccc2c(=O)n1Cc1ccccc1
→ -0.2, 1.5%
- CCOc1ccc(C(=O)NCCn2cc(SCC(=O)Nc3ccc4c(c3)OCCO4)c3ccccc32)cc1
→ 2.0, 0.5%
- Cc1cc(C)cc(OCC(=O)NCC2(N(C)C)CCCCC2)c1
→ -0.7, -0.5%
- COc1ccc(OC)c(C2C(C(=O)Nc3ccc(C)cc3C)=C(C)Nc3c(C(=O)Nc4ccc(F)cc4)cnn32)c1 (stereo not drawn)
→ 2.9, ?
- Cc1ccc(-n2cnc3cc(C(=O)NC4CCCCCC4)ccc32)c(C)c1
→ 1.8, 1.6%
- CCc1cccc(NC(=O)CN2c3ccccc3S(=O)(=O)c3ccccc32)c1
→ 1.1, 2.6%
- COc1cc(NS(=O)(=O)c2ccc(NC(=O)c3ccc(C(C)=O)cc3)cc2)nc(OC)n1
→ 1.8, -0.1%

Screens: PubChem, National Center for Advancing Translational Sciences (NCATS)
